# HIV TAR-Tat: HIV-1 TAR-Tat binding disruption | HIV-1 TAR RNA, Tat peptide displacement FRET; hits give high values | z-score (test concentration not listed) | 100,000 compounds, 0.6% hits;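 further: score is relative to mean and SD of negative controls; some compounds called inactive have numbers as strong as hits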
# CDC25B CDK2 inh: human CDC25B-CDK2/CyclinA binding inhibition; P30305+P24941; z-score (test concentration not listed); 94,000 compounds, 0.72% hits; AID 1259370; HTRF CDC25B-CDK2/CyclinA binding, anti-His/anti-Flag; hits give high values;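 further: score is relative to mean and SD of negative controls; strong numbers were not always called active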
# Numbers without * were called inactive; · = no result given.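 How the source made its calls: active means z-score from 3 up in half or more of its runs; inactive means the rest.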 Hits appear at their usual frequency; 0.87% or so of the library scored in one or more.
SMILES,HIV TAR-Tat,CDC25B CDK2 inh
CCOC(=O)c1noc2nc(C)n(CCOc3ccc(F)cc3)c(=O)c12,0.43,·
CC(C)COc1ccccc1C1C=C(C(=O)O)Nc2ncnn21 (configuration not stated),2.9,-0.31
O=C(CS(=O)(=O)c1ccc2c(c1)S(=O)(=O)N=CN2)Nc1ccc(F)cc1F,0.3,·
CC(=O)N1CCc2cc(S(=O)(=O)C(C)CC(=O)Nc3c(C)cc(C)cc3C)ccc21 (configuration not stated),1.2,·
COc1ccccc1C1C=C(c2ccc(Br)cc2)Nc2ncnn21 (configuration not stated),0.34,·
O=c1c(N2CCN(Cc3ccccc3)CC2)csc2ccc(Cl)cc12,-1.3,·
CCOC(=O)/C(C#N)=C/N1CCC(C(c2ccccc2)c2ccccc2)CC1,·,-0.99
CCCc1ncc(C(O)(c2ccccc2)c2ccccc2)n1C,0.88,-1.2
COc1ccc(C2C(C(=O)c3ccco3)=C(O)C(=O)N2c2nnc(C)s2)cc1OC (configuration not stated),-10,-1.9
COc1cccc(C(O)c2nccn2C)c1OC (configuration not stated),1.4,-1.5
O=C(Nc1cccc(Cl)c1)c1noc2c1CSc1ccccc1-2,1.3,-1.2
COCCOC(=O)C1=C(C)NC2=C(C(=O)CCC2)C1c1ccccc1 (configuration not stated),·,0.05
Cc1ccc(C2/C(=C(\O)c3ccc(Br)cc3)C(=O)C(=O)N2CCCN(C)C)cc1 (configuration not stated),-0.86,-1.5
Cc1nc2nc(NC(=O)C3CC3)[nH]n2c(=O)c1C,1.2,-0.61
CS(=O)(=O)Nc1cccc(C2=NN(C(=O)CCCC(=O)O)C(c3ccc(F)cc3)C2)c1 (configuration not stated),0.86,0.09
Cn1cc(S(=O)(=O)N2CCc3ccccc32)cc1C(=O)Nc1ccccc1Br,0.46,·
C=CCN(Cc1nc(-c2ccc(Cl)cc2)no1)C(=O)NCCC,0.47,-1.2
Fc1ccccc1Nc1ncnc2sc3c(c12)CCCC3,1.6,-6.7
Cn1c(C(=O)NCCCN2CCCC2=O)cc2c(=O)n3ccccc3nc21,·,-0.58
O=C(CN1CCC(C(=O)O)CC1)Nc1ccccc1Oc1ccccc1,·,0.75
CCOC(=O)c1c(C)[nH]c(C)c1S(=O)(=O)NCC(=O)N1c2ccccc2CC1C (configuration not stated),0.76,·
Cc1oc(C)c2c(=O)cc(-c3cccs3)cc(OC(=O)c3ccccc3Cl)c12,-2.7,0.69
C=C(C)Cn1c(SCCC(=O)OC)nc2sc3c(c2c1=O)CC(C)(C)OC3,0.69,-0.62
O=C(NC1CCCCC1)c1cnn2c(C(F)(F)F)cc(-c3ccccc3)nc12,2.4,·
CC(C)Nc1ncnc2c1c(-c1ccccc1)cn2-c1ccccc1,·,-3.1
# Next results:
SMILES,HIV TAR-Tat,CDC25B CDK2 inh
Brc1cccc(CNCc2ccc3c(c2)OCO3)c1,0.95,-0.89
Cc1nc(C#N)c(NCc2ccco2)o1,·,-1.6
CCOC(=O)c1c(C)oc2nc(C)nc(N3CCCC(C)C3)c12 (configuration not stated),0.13,·
Cc1nn(C)c(N/N=C/c2cc(Br)cs2)c1[N+](=O)[O-],·,-0.25
O=C(c1ccc2c(c1)OCO2)N1CCC(c2nc3c(nnn3Cc3cccc(Cl)c3)c(=O)[nH]2)CC1,0.85,1.2
c1ccc2[nH]c(C3CCCO3)nc2c1 (configuration not stated),1.9,-1.8
O=[N+]([O-])c1ccccc1OCCOC1OCCOC1OCCOc1ccccc1[N+](=O)[O-] (configuration not stated),·,-0.87
Cn1c(=O)c2c(nc(SCC(=O)NC(c3ccccc3)c3ccccc3)n2C)n(C)c1=O,2.9,-0.03
CCOCCOC(=O)c1cccc2c1-c1ccccc1C2=O,3.1,0.12
CN1CCN(c2ncc3c(=S)[nH]c(=S)[nH]c3n2)CC1,·,-3.4
Cc1cc(S(=O)(=O)[C@H]2CS(=O)(=O)C[C@@H]2N2CCN(c3cccc(C)c3C)CC2)ccc1F,0.02,-0.3
Cc1cc2c3c([nH]c2cc1S(=O)(=O)N1CCc2ccccc21)CCCC3=O,1.4,·
Cc1cc(C)n(CC(O)Cn2cnc3c2c(=O)n(C)c(=O)n3C)n1 (configuration not stated),·,-2.5
CC(C)NC(=O)CSCc1nc2cccnc2n1C1CCCCC1,-0.98,·
Cn1c2ccccc2c2cnn(CC(=O)NCC3CCCO3)c(=O)c21 (configuration not stated),2.3,0.75
OCCc1c[nH]c2ccc(OCc3ccccc3)cc12,-0.84,-1.3
Cc1ccc(NS(=O)(=O)c2cc(S(=O)(=O)Nc3ccc(C)cc3)c3cccc4c3c2NC4=O)cc1,·,-1.4
O=C1CC(c2ccc(O)cc2)c2scc(-c3ccccc3)c2N1 (configuration not stated),2.2,·
COC(=O)c1ccc(COc2cc3oc(=O)c4c(c3cc2Cl)CCCC4)o1,·,-7.4
O=S(=O)(Cc1nc(-c2ccc3c(c2)OCCO3)cs1)c1ccc(Cl)cc1,·,-1.6
O=C(Nc1cccc2ccccc12)c1cc2c(=O)n3ccccc3nc2s1,·,0.1
CCOC(=O)c1[nH]c(=O)c2ccccc2c1O,0.47,-1.8
O=S(=O)(c1cnc[nH]1)N1CCCC1c1cccs1 (configuration not stated),-0.51,-1.8
Cc1ccc(Cl)cc1N1CCN(C(=O)c2cnc3sc(N4CCOCC4)nn3c2=O)CC1,-0.07,·
Cn1c(=O)n(Cc2ccccc2)c(=O)c2c1ncn2CCO,-0.04,-0.13

# An excerpt from above in order of number of heavy atoms, low to high:
SMILES,HIV TAR-Tat,CDC25B CDK2 inh
CCOC(=O)c1[nH]c(=O)c2ccccc2c1O,0.47,-1.8
O=S(=O)(c1cnc[nH]1)N1CCCC1c1cccs1 (configuration not stated),-0.51,-1.8
Cn1c(=O)n(Cc2ccccc2)c(=O)c2c1ncn2CCO,-0.04,-0.13
CCOC(=O)c1noc2nc(C)n(CCOc3ccc(F)cc3)c(=O)c12,0.43,·
CCOC(=O)c1c(C)[nH]c(C)c1S(=O)(=O)NCC(=O)N1c2ccccc2CC1C (configuration not stated),0.76,·
O=[N+]([O-])c1ccccc1OCCOC1OCCOC1OCCOc1ccccc1[N+](=O)[O-] (configuration not stated),·,-0.87

# More entries
SMILES,HIV TAR-Tat,CDC25B CDK2 inh
O=C(c1ccco1)N1CCN([C@H]2CS(=O)(=O)C[C@@H]2S(=O)(=O)c2ccc(Cl)cc2)CC1,1.2,-1.8
CSc1ncc2c(=O)n(-c3cccc(Cl)c3C)c(=O)[nH]c2n1,-0.13,·
Cc1cc2c(cc1C)C(c1ccncc1)CC(=O)N2 (configuration not stated),-1,-0.79
Cc1ccc(S(=O)(=O)c2cn(C)c3cc(N4CCOCC4)c(F)cc3c2=O)cc1,-0.36,·
Cc1cc(F)ccc1NS(=O)(=O)c1cc(-c2n[nH]c(=O)c3c2CCCC3)ccc1C,0.51,3.8
CCCCC(Sc1ccc2nnc(-c3ccc(C)cc3)n2n1)C(=O)O (configuration not stated),·,-1.9
CCS(=O)(=O)c1ncc(Cl)c(C(=O)N(Cc2cccs2)C2CCS(=O)(=O)C2)n1 (configuration not stated),0.34,1.7
O=C(NCc1cccs1)c1cc2c(Cl)ccc3c2n1CCO3,0.53,·
COCCCNc1nc(N2CCOCC2)c2cnn(C)c2n1,1.9,·
Cc1ccc(-c2csc3c2ncn2c(=O)n(CC(=O)Nc4cc(C)cc(C)c4)nc32)cc1,-0.46,·
O=C(Nc1ccc(-c2nc3ccccc3s2)cc1)c1ccc([N+](=O)[O-])o1,-0.22,0.51
O=C(c1ccncc1)N1N=C(c2ccc(Cl)cc2)CC1(O)C(F)(F)F (configuration not stated),·,0.01
O=S(=O)(Nc1cccc2ccccc12)c1cc(Cl)ccc1Cl,·,2.6
Cc1ccc2scc(N3CCN(CCc4ccccc4)CC3)c(=O)c2c1,0.83,·
COc1cc(C2CC(=O)N3CN(C)CSC3=C2C#N)ccc1OCc1ccccc1 (configuration not stated),-1.3,4.1*
CCCCCOC(=O)Cn1nnc2sc3c(c2c1=O)CCC(C)C3 (configuration not stated),0.06,0.36
COc1ccccc1OCc1nc2ccccc2n1Cc1ccccc1,-0.4,-0.02
Cn1c(=O)c2c(nc(-n3ccnc3)n2C)n(C)c1=O,·,-0.94
COc1ccc(CN2Cc3ccncc3C2=O)c(OC)c1,0.88,·
Cc1nc2sccn2c(=O)c1S(=O)(=O)NC1CCCCC1,-0.45,-1
Cc1[nH]c2ccccc2c1C(=O)C(=O)N1CC(C)CC(C)C1 (configuration not stated),·,-0.38
CSc1ccccc1NC(=O)CN1c2ccc(Br)cc2-c2ccccc2S1(=O)=O,1.9,-3.6
O=C(CCC(=O)N1CCOc2ccccc21)NCCN1CCOCC1,-2.1,-1.8
Cn1c(=O)c2c(nc(NCc3ccco3)n2Cc2ccccc2F)n(C)c1=O,1.3,-1.3
Cn1ncc2c3ccccc3n(CCCC(=O)N3CCN(C(=O)c4ccco4)CC3)c2c1=O,2.3,-1.2
# New compounds follow:
SMILES,HIV TAR-Tat,CDC25B CDK2 inh
COc1ccc(Cn2cc(C(=O)c3ccc(F)cc3)c(=O)c3cc(OC)ccc32)cc1,0.76,1.1
c1ccc(Oc2ccc(-n3nnc(-c4ccccc4)n3)cc2)cc1,0.4,1.5
Brc1ccc(-n2cccc2)nc1,·,-0.15
COc1ccc2c(Sc3ccc(Cl)cc3)c(C(=O)NCC3CCCO3)[nH]c2c1 (configuration not stated),2.6,-3.1
Cc1ccc(C)c(NC(=O)CSc2ccc(-c3sc(C)nc3C)nn2)c1,0.72,·
CCCCNc1nc(Oc2ccc(=O)n(-c3ccccc3)n2)nc(N(C)C)n1,5.3,-0.81
Clc1ccc2nc(NC3CCN(Cc4ccccc4)CC3)c3nncn3c2c1,0.13,-1.1
Cc1c(C(=O)NCCCN2CCN(C3CCCCC3)CC2)oc2c1-c1[nH]ncc1CC2,1.8,-1.4
COc1ccc(C2Nc3ccccc3-c3cc(C)nn32)cc1O (configuration not stated),-1.3,-0.62
Cc1c(/C=C/c2nc3ccccc3c(=O)n2C)c2ccccc2n1C,-0.72,-0.81
CCOC(=O)c1cnc(Nc2nc3ccccc3o2)nc1CSc1ncccn1,2.5,1.5
Cc1ccc(S(=O)(=O)c2nc(-c3cccs3)oc2N2CCCCC2)cc1,1.3,-1.8
CCN(Cc1ccccc1)c1ncnc2c1nnn2C,1.5,·
Fc1ccc(C(c2nnc(-c3ccccc3)o2)N2CCN(Cc3ccc4c(c3)OCO4)CC2)cc1 (configuration not stated),0.59,·
CSc1nc2c(c(=O)[nH]1)C(c1ccncc1)C(C(=O)OC(C)C)=C(C)N2 (configuration not stated),·,-1.6
O=C(c1ccco1)N1CCN(c2csc3ccc(F)cc3c2=O)CC1,0.6,·
c1ccc(-c2nnn(-c3cnc4ccccc4c3)n2)cc1,-0.88,-0.49
O=C1NC2(CCCCCC2)N=C1c1ccc(Br)cc1,·,-0.91
CC(C)n1cc2c(c1-c1ccccc1Cl)c(=O)n(C)c(=O)n2C,0.73,-0.09
COc1ccc(C(=O)c2oc3ccc(N)cc3c2C)cc1OC,0.91,·
O=C(C1=C(Nc2ccccc2)c2ccccc2S1(=O)=O)N1CCOCC1,-0.36,·
CC(C)CN(CC(C)C)C(=O)CN(C)S(=O)(=O)c1ccc2c(c1)CCC(=O)N2,·,-0.68
CCCc1cc(=O)n2nc(N(C)CC(=O)NCc3ccccn3)sc2n1,0.8,-0.31
CCc1nn(CC(=O)NCCCN2C(C)CCCC2C)c(=O)c2cc3sc(C)cc3n12 (configuration not stated),1.4,-0.12
COc1ccc(N2C(=O)CCS2(=O)=O)cc1S(=O)(=O)Nc1cccc2cccnc12,0.56,-1

# Whole records from above.
# Shown for O=C(C1=C(Nc2ccccc2)c2ccccc2S1(=O)=O)N1CCOCC1 = HIV TAR-Tat = -0.36; CDC25B CDK2 inh = ·
# Shown for Clc1ccc2nc(NC3CCN(Cc4ccccc4)CC3)c3nncn3c2c1 = HIV TAR-Tat = 0.13; CDC25B CDK2 inh = -1.1
# Shown for Brc1ccc(-n2cccc2)nc1 = HIV TAR-Tat = ·; CDC25B CDK2 inh = -0.15

# Continued.
SMILES,HIV TAR-Tat,CDC25B CDK2 inh
CC(C)C(C(=O)N1CCCC1)N1Cc2ccccc2C1=O (configuration not stated),-1.7,·
Cn1c(/C=C/c2cn(Cc3ccccc3)c3ccccc23)nc2ccccc2c1=O,0.3,-0.91
CCC(CO)Nc1nc2c(c(=O)n(C)c(=O)n2C)n1Cc1ccccc1 (configuration not stated),·,-1.3
NC(=O)c1c(NC(=O)C2CCCN(C(=O)c3ccco3)C2)sc2c1CCCC2 (configuration not stated),-1.8,-1.5
COc1cccc(-c2nn(C)c3sc(C(=O)NC4CC4)cc23)c1,·,-2.5
COc1ccc(S(=O)(=O)N(CCC#N)Cc2ccco2)cc1OC,·,-1.2
CCN(CC)c1c(S(=O)(=O)c2ccc(C)c(C)c2)cnc2ccc(OC)cc12,0.68,0.47
CC(C)CCNc1cc(=O)n(C)c(=O)n1C,0.12,-0.71
COC(=O)C1=C(C)NC2=C(C(=O)CC(c3ccc(Cl)cc3)C2)C1c1ccccc1 (configuration not stated),·,-0.84
CCOC(=O)c1c(S(=O)(=O)NCC(=O)N2CCCC2)c(C)n(CC)c1C,2,·
CCOC(=O)c1nc(-c2ccnc(N3CCCC3)c2)no1,0.07,-2.3
O=C(Nc1ccc(Br)cc1C(F)(F)F)C(F)(F)F,·,-1.6
CC(C)CCNC(=O)C1(C)CCC(=O)N1CCC1=CCCCC1 (configuration not stated),-0.26,-0.38
COC(=O)c1c(NC(=O)c2c(OC)cccc2OC)sc2c1C(C(=O)OC)CC2 (configuration not stated),-0.15,-1.1

# Bioassay records deposited in PubChem BioAssay by Center for Chemical Genomics, University of Michigan.
